eIF4H FP inh = inhibitors of RNA binding by human eIF4H. inhibition, % at 35 µM. hit rate 0.94% among 290,000. eIF4H fluorescence polarization binding assay. Q15056;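 active means 50% or more with normal probe brightness, or confirmed in later tests; inconclusive means above 50% with abnormal brightness, or retests that disagree; inactive means below 50% or failed in later tests; about a fifth of its hits are not listed in these tables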;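 further: calls also rest on retests at 20 µM and on dose response follow-up; 0% = protein and probe with vehicle and 100% = probe without protein; strong numbers were not always called active; many hits fall short of the cut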
PABP FP inh = blocks human PABP binding to poly(A) RNA | P11940 | fluorescence polarization | inhibition, % at 35 µM | hit rate 1% among 290,000 | AID 2014;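 active means 50% or more with normal probe brightness, or confirmed in later tests; inconclusive means above 50% with abnormal brightness, or retests that disagree; inactive means below 50% or failed in later tests; about a fifth of its hits are not listed in these tables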;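 further: calls also rest on retests at 20 µM and on dose response follow-up; controls were probe without protein and protein plus probe with vehicle; some compounds called inactive have numbers as strong as hits; many hits fall short of the cut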
Rce1 inh = inhibitors of yeast Ras-converting enzyme. Q03530. yeast membranes, quenched prenylated peptide cleavage fluorescence. calls only. hit rate 0.27% among 290,000;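 active means fall in fluorescence gain of 50% or more versus controls, with final raw signal at or below 3038400; inconclusive means same 50% fall but final raw signal above 3038400; inactive means fall in fluorescence gain under 50%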;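 further: plate controls were neutral control wells for no effect and wells lacking membranes for full effect; tested at 10 µM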
Target sequence (Q03530 whole entry, looked up): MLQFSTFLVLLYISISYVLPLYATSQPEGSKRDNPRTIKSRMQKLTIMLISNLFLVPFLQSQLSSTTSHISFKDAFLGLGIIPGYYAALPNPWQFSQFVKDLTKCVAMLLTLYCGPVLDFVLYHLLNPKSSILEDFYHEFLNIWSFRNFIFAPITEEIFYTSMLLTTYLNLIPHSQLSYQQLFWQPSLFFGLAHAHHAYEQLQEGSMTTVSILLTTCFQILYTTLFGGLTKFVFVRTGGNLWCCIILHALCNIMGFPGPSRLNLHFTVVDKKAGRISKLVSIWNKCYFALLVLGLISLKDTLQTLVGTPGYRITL
HIV Env fusion = blocks HIV Env-driven cell-cell fusion. HeLa-JRFL Env/CEM21 cell fusion, luciferase. inhibition, % at 12.3 µM. hit rate 1.1% among 360,000. AID 651610;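 active means mean replicate inhibition score of at least 50 and every replicate individually at or above 50; inconclusive means only one of the two criteria met; inactive means mean below 50 and not all replicates reaching 50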;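 further: 0% = plate neutral controls and 100% = maraviroc near 300 nM; one replicate is shown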
MT1-MMP act inh = MT1-MMP (human) activation inhibition; hit rate 0.061% among 360,000; GFP/RFP ratio change, % at 20 µM; HT1080 RFP-PRO-GFP cells, GFP/RFP ratio fluorescence, overnight; percent of plate control window, DMSO zero; P50281;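 active means GFP/RFP ratio change of at least 30% with cell ATP level not reduced by more than half and red fluorescence within 50% of control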; further: strong numbers were not always called active
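system = RFP-PRO-GFP reporter HT1080 cells | dosing = 20 µM single dose, 1% DMSO | timing = overnight cell settling, then overnight compound exposure, 37 °C, 5% CO2 | read-out basis = GFP/RFP fluorescence ratio | controls = DMSO and RFP-L50D-GFP cell wells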
UUG fidelity = alters start codon recognition fidelity in yeast; S. cerevisiae UUG-firefly luciferase reporter, luminescence/redox ratio; activity score, % at 18.7 µM; hit rate 0.13% among 350,000;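 active means replicate mean at a twofold rise or more, about +100% in these data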;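 further: firefly luciferase made from a UUG start codon reports start codon fidelity; reporter light over untreated wells divided by growth signal over untreated wells; some hits fall short of that in this replicate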
CSC inhib = cancer stem cell inhibition; cancer stem cell-like cells viability, luminescence; hit rate 1.1% among 300,000; inhibition, % at 7.5 µM; AID 2717;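 active means mean at 75% or more and at least half the replicates too; inconclusive means mean and replicates disagree; tested in HMLE shEcad cells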;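 further: 0% = median of negative and 100% = median of positive control wells; the first replicate is given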
eIF4H FP inh retest = recorded beside eIF4H FP inh, whose call it bears; inhibition, %; compound at 20 µM; confirmation average;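 mean of two retest wells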
PABP FP inh retest = also measured in PABP FP inh; calls as there; inhibition, %; compound at 20 µM; confirmation repeats;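 mean of two retest wells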
MT1-MMP act inh RFP = recorded beside MT1-MMP act inh, whose call it bears; RFP signal change, %; measured here: RFP expression control read;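 0 = vehicle wells; hits needed this value within 50% of zero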
Numbers without * were called inactive; i = inactive; u = inconclusive; x = no result given.

SMILES | eIF4H FP inh | PABP FP inh | Rce1 inh | HIV Env fusion | MT1-MMP act inh | MT1-MMP act inh RFP | UUG fidelity | CSC inhib | others
COc1ccc(NC(=O)CSc2nnc(N)s2)cc1S(=O)(=O)N1CCCCC1 | x | x | x | -10 | 5 | -1 | -7 | -15
CC(=O)Nc1cc(-c2ccccc2CN(C)C)cn2c(-c3ccc(C(C)=O)cc3)cnc12 | x | x | x | -93 | 1 | 2 | -12 | x
CC(=O)c1ccc(NC(=O)COC(=O)CCC(=O)c2cccs2)cc1 | -4 | 5 | i | x | 3 | 5 | -10 | -9
O=C(Nc1cc(Cl)c(O)c(Cl)c1)C1CCCO1 (stereo unspecified) | -4 | -2 | i | x | -1 | 0 | -14 | -3
C(=C\c1sc(Nc2ccccc2)n[n+]1-c1ccccc1)/c1ccccc1 | x | x | x | 21 | -2 | -1 | -20 | x
COCCCNC(=O)c1ccc(Cn2c(=O)c3ccccc3n(CC(=O)NCCc3ccc(OC)c(OC)c3)c2=O)cc1 | 0 | -5 | i | -5 | -2 | -4 | -23 | -5
COc1ccc(CNC(=O)c2ccc(Cl)c(NC3=NC4CS(=O)(=O)CC4S3)c2)cc1 (stereo unspecified) | 6 | -6 | i | -11 | 2 | 3 | -13 | -1
Nc1c(-c2cccs2)cnn1-c1nc(-c2ccc(F)cc2)cs1 | 6 | -1 | i | -187 | 3 | 3 | -22 | 5
Nc1nc(CSc2nnnn2-c2ccccc2)nc(N2CCCc3ccccc32)n1 | -5 | 2 | x | x | -5 | -10 | -24 | x
Cc1c(Cl)cccc1NC(=S)N1CCN(c2ccc([N+](=O)[O-])cn2)CC1 | -4 | 5 | i | -4 | 3 | -7 | x | -4
COc1ccc(-c2c(-c3ccccc3OC)sc3ccccc23)cc1 | 1 | -2 | i | -2 | 1 | -4 | -15 | 20
O=C(N/N=C/c1ccc(OC(=O)c2ccc(Br)cc2)cc1)c1ccncc1 | 79* | -17 | i | -11 | 0 | 4 | x | -6 | eIF4H FP inh retest=51*;PABP FP inh retest=3
COc1cccc(NC(=O)C2(C)CCN2CC2CCCCC2)c1 (stereo unspecified) | x | x | x | -8 | 2 | 0 | 7 | x
Cc1ccc(/C=N/OC(=O)c2nn(C)cc2Cl)cc1 | 7 | 4 | i | -4 | 1 | 5 | x | -14
C[C@@H]1CC[C@]2(C(=O)O[C@@H]3O[C@H](CO)[C@@H](O)[C@H](O)[C@H]3O)CC[C@]3(C)C(=CCC4[C@@]5(C)C[C@@H](O)[C@H](O)[C@@](C)(C(=O)O[C@@H]6[C@H](O)C[C@@]7(C)C(CC[C@]8(C)C7CC=C7[C@H]9[C@](C(=O)O[C@@H]%10O[C@H](CO)[C@@H](O)[C@H](O)[C@H]%10O)(CC[C@@H](C)[C@@]9(C)O)CC[C@]78C)[C@@]6(CO)C(=O)O)C5CC[C@]43C)[C@@H]2[C@]1(C)O (stereo partly specified) | x | x | x | 5 | 4 | 5 | 6 | x
COc1ccccc1NC(=O)C1=C(C)NC2=C(C(=O)CC(c3ccc(OC)c(OC)c3)C2)C1c1coc2ccccc2c1=O (stereo unspecified) | -8 | -2 | i | -14 | -18 | -16 | x | 19
COc1ccc(Cl)cc1NC(=O)c1cccnc1 | -12 | 4 | i | -96 | 1 | 1 | -12 | -12
O=C(CCC1CCCCC1)NNC(=O)c1cnccn1 | 12 | -8 | i | x | 2 | 1 | x | 5
Cc1cccc(-n2c(C)nc3c(cnn3-c3ccc(F)cc3)c2=O)c1 | -11 | -2 | i | x | 7 | -2 | 2 | 5
COc1ccc(CN(CCO)CCO)cc1[N+](=O)[O-] | -10 | -12 | i | 1 | 0 | 3 | x | 2
O=C(CSc1nnc2ccc(-c3cccnc3)nn12)Nc1cccc(F)c1 | x | x | i | 3 | 0 | 0 | x | x
COc1ccc(-n2nc3c(c2NC(=O)CBr)CSC3)cc1 | -30 | -9 | i | 0 | -1 | 2 | -20 | -11
O=C(N/N=C/c1ccccc1C(F)(F)F)c1ccc(O)cc1 | 10 | -3 | i | -17 | -3 | -3 | x | -3
Cc1ccc(CC(=O)N2CCC(c3nc4c(nnn4Cc4ccccc4)c(=O)[nH]3)CC2)cc1 | -1 | 5 | i | 7 | 2 | 2 | -18 | -6
c1ccc2c(c1)nc(N1CCCCC1)c1ccccc12 | -2 | 13 | i | -62 | 0 | 1 | x | 11
Additional results follow.
SMILES | eIF4H FP inh | PABP FP inh | Rce1 inh | HIV Env fusion | MT1-MMP act inh | MT1-MMP act inh RFP | UUG fidelity | CSC inhib | others
CCN1C(=O)/C(=C/c2cccs2)S/C1=N\S(=O)(=O)c1ccc(C)cc1 | -9 | 7 | i | x | -2 | -8 | -1 | -3
Cn1c(=O)c2c(SC3CCCC3)nc(C3CC3)nc2n(C)c1=O | -1 | -6 | i | -8 | 2 | -7 | -13 | x
COc1ccc(OC)c(-c2cc(C(=O)Nc3c(C)nn(Cc4ccccc4Cl)c3C)no2)c1 | 12 | 4 | i | u | -13 | -17 | -19 | 6
COc1cc(CCN2C(=O)c3cccc4cccc(c34)C2=O)c(S(=O)(=O)NCCO)cc1OC | -6 | 0 | i | -9 | 4 | 2 | x | 6
Cc1ccc(-n2ncc(Cl)c2C(=O)NC2CC2)cc1 | 3 | 1 | i | -21 | 1 | -1 | x | 24
Cc1ccccc1Nc1nc(N)nc(COC(=O)c2c(C)noc2C)n1 | x | x | x | 13 | 7 | -2 | -15 | -10
CCOc1ccccc1N1CC(C(=O)N(C)Cc2cccnc2)CC1=O (stereo unspecified) | -7 | 1 | i | 2 | 0 | 2 | -3 | 4
CC1CCc2cc(F)ccc2N1C(=O)C12CCC(C)(C(=O)O1)C2(C)C (stereo unspecified) | -4 | 2 | i | 26 | -3 | -5 | x | 1
CCCn1cc(S(=O)(=O)CC(=O)Nc2ccc(OC)cc2OC)c2ccccc21 | -8 | -4 | i | -42 | 8 | 3 | 15 | -21
CN1CCN(CCC(=O)N/N=C/c2cc([N+](=O)[O-])ccc2O)CC1 | 7 | 9 | i | -58 | 0 | -8 | x | -7
COCCNC(=O)c1ccc2c(c1)nc(C)n2-c1cccc(F)c1 | -3 | 8 | i | x | 3 | -2 | -14 | -5
Cn1cc(CC(=O)NCCCN2CCCC2=O)c2ccccc21 | 6 | -8 | i | 47 | 3 | 5 | -12 | -17
CCC(C)(C)NC(=O)C(c1ccccc1)N(Cc1cccnc1)C(=O)c1csnn1 (stereo unspecified) | -3 | -11 | i | -4 | 1 | 1 | -17 | -9
O=C(c1ccco1)N1CCN(c2ncccn2)CC1 | -3 | -4 | i | -15 | 3 | 3 | -17 | -12
O=C(NCc1ccc(C(F)(F)F)cc1)c1cccc2c(-c3cccnc3)coc12 | x | x | x | 30 | -5 | -20 | -1 | x
CCOCCN1CCN(C(=O)CN2CCCC2=O)CC1 | 8 | 12 | i | 9 | 18 | 10 | x | 2
CCOc1ccc(C2/C(=C(\O)c3ccc(OC)c(OC)c3)C(=O)C(=O)N2c2cc(C)on2)cc1OC (stereo unspecified) | 4 | 23 | i | x | 5 | 1 | -19 | -12
O=C(NCc1ccc2c(c1)OCO2)c1ccc(S(=O)(=O)C(F)F)cc1 | -4 | -13 | i | -1 | 3 | 6 | x | -3
O=C(Nc1ccc(F)cc1Cl)C1=COCCO1 | x | x | i | x | 3 | 1 | x | -5
CCCCN(C)Cc1c(C)[nH]c2ccccc2c1=O | 25 | 11 | i | -20 | -6 | 0 | x | -5
Cc1cc(C)c2sc(N(CCCN(C)C)C(=O)c3ccc(S(=O)(=O)N4CCc5ccccc5C4)cc3)nc2c1 | x | x | i | x | -4 | -4 | -9 | 14
CC1=Nc2cc(C(=O)O)ccc2Sc2ccc(Br)cc21 | 60 | 17 | x | -9 | -2 | 4 | -18 | 9 | eIF4H FP inh retest=29;PABP FP inh retest=29
CCCCCCCC(=O)Nc1cc(C(=O)NCCC)ccc1N1CCC2(CC1)CC(c1ccccc1)=NO2 | 6 | -1 | i | -5 | -1 | -7 | -3 | 8
CC(C)c1cc(C(N)=O)c(NC(=O)C2CCC2)s1 | 1 | 11 | i | x | 3 | 0 | x | 13
CC(NC(=O)CS(=O)(=O)c1ccccc1)c1ccccc1 (stereo unspecified) | -9 | 7 | i | -5 | -1 | -1 | -13 | -3

Random excerpt: 5 records from the list, in no set order.
SMILES | eIF4H FP inh | PABP FP inh | Rce1 inh | HIV Env fusion | MT1-MMP act inh | MT1-MMP act inh RFP | UUG fidelity | CSC inhib | others
CN1CCN(CCC(=O)N/N=C/c2cc([N+](=O)[O-])ccc2O)CC1 | 7 | 9 | i | -58 | 0 | -8 | x | -7
COCCNC(=O)c1ccc2c(c1)nc(C)n2-c1cccc(F)c1 | -3 | 8 | i | x | 3 | -2 | -14 | -5
COc1cc(CCN2C(=O)c3cccc4cccc(c34)C2=O)c(S(=O)(=O)NCCO)cc1OC | -6 | 0 | i | -9 | 4 | 2 | x | 6
CCOCCN1CCN(C(=O)CN2CCCC2=O)CC1 | 8 | 12 | i | 9 | 18 | 10 | x | 2
O=C(NCc1ccc(C(F)(F)F)cc1)c1cccc2c(-c3cccnc3)coc12 | x | x | x | 30 | -5 | -20 | -1 | x

(listing goes on)
SMILES | eIF4H FP inh | PABP FP inh | Rce1 inh | HIV Env fusion | MT1-MMP act inh | MT1-MMP act inh RFP | UUG fidelity | CSC inhib | others
CCCS(=O)(=O)N1CCCC(C(=O)NCc2cccnc2)C1 (stereo unspecified) | 0 | -3 | i | x | 3 | 7 | -4 | -5
CC(C)CCn1nnnc1CN1CCN(c2ccccc2)CC1 | -4 | 0 | i | 2 | 0 | 4 | -6 | -8
O=C(NC1CCCC1)c1ccc(CSCc2ccccc2F)o1 | 4 | -4 | i | 8 | -3 | -5 | -3 | 9
CN(C)c1nc(N)nc2c1ncn2C1OC(CO)CC1O (stereo unspecified) | x | x | x | -16 | 4 | 5 | -23 | x
Cc1ccc(NC(=S)N2CCCC(c3ccccc3)=N2)cc1 | 0 | 6 | i | -48 | -5 | 0 | x | 24
N/C(=N\OC(=O)c1ccccc1Cl)c1ccncc1 | 0 | -5 | i | -105 | -1 | 1 | x | 7
Cc1ccccc1C(=O)Nc1nnc(S(=O)(=O)N(C)Cc2ccco2)s1 | 0 | 10 | i | -3 | 3 | 0 | -20 | 16
Nc1nc(Cl)c(C=O)c(N2CCCCC2)n1 | -5 | -6 | i | 9 | -2 | -2 | -18 | 1
Cc1ccc(NC(=O)CNc2cccc(Br)c2)cc1S(=O)(=O)N1CCOCC1 | x | x | x | 8 | 4 | -8 | -11 | 15
COc1cc(C2C(C#N)=C(N)Oc3cc(O)ccc32)cc2c1OCO2 (stereo unspecified) | 17 | 13 | i | x | -15 | -6 | -10 | -2
Cc1cccc(C)c1OCc1cc(C(=O)N2CCC(C3CCCCC3)C2)no1 (stereo unspecified) | -11 | -3 | i | -17 | -2 | 1 | -23 | 28
CCOC1=C2[C@@H](CN(S(=O)(=O)c3ccc(C)cc3)[C@H]2c2ccccc2F)[C@H]2C(=O)NC(=O)[C@H]2C1 | x | x | x | -36 | 4 | 4 | -7 | x
COc1ccc2nc(COC(=O)c3cccc([N+](=O)[O-])c3)c(C(C)=O)[n+]([O-])c2c1 | -8 | -7 | i | 23 | 1 | 0 | x | -13
NS(=O)(=O)c1ccc(NC(=S)NCc2ccc(Cl)cc2)cc1 | -7 | 4 | i | x | 1 | -3 | -9 | -1
CSC(=Nc1ccc(Cl)cc1)N[n+]1ccccc1 | 5 | -3 | i | -50 | -3 | 5 | -11 | 13
Cc1ccc(NC(=O)CN2CCN(Cc3ccccc3)CC2)c(Br)c1 | 0 | -3 | i | -5 | -4 | -4 | -15 | 7

Screens (PubChem)
